# PV pol inh = inhibitors of poliovirus RNA polymerase binding and polymerization; P03300; poliovirus polymerase elongation, fluorescence polarization; hits give low values; % elongation, % (compound at 16.7 µg/mL); 0.66% of 150,000 active; in the data active means % elongation below about 90%; further: some results filed as inactive read as strong as hits
# Target sequence (P03300 1749-2209 limits assumed): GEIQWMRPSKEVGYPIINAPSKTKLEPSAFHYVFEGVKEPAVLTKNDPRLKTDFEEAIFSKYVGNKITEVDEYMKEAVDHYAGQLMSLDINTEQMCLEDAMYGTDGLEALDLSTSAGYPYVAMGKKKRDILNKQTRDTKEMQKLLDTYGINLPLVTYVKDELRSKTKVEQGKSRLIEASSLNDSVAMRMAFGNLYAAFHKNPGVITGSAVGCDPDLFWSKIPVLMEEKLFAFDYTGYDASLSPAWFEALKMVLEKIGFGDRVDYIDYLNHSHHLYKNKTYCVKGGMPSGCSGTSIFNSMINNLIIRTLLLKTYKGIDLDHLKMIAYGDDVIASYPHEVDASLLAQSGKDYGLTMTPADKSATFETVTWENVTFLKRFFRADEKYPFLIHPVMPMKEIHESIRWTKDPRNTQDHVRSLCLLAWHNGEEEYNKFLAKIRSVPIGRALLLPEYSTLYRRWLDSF
# PV pol inh intensity = also measured in PV pol inh; calls as there; % elongation; measured here: total intensity read-out; formula for this scale not given here;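 total fluorescence in place of polarization; lower means less elongation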
# Starred values were filed as active, the others as inactive. An excerpt; rates above refer to the full screens.
SMILES,PV pol inh,PV pol inh intensity
CCOC(=O)c1nc(Nc2ccc(C(C)=O)cc2)c2ccccc2n1,105,101
CC(C)CN(CCCNC(=O)c1cc(-c2ccc(Br)s2)nc2ccccc12)CC(C)C,109,113
COc1ccc(Oc2nc3c(c(=O)n(Cc4ccccc4Cl)c(=O)n3C)n2C)cc1,108,111
O=C(c1ccc2c(c1)N(Cc1ccccc1F)C(=O)c1ccccc1S2(=O)=O)N1CCCCCC1,106,110
CCOc1ccc(NC(=O)[C@H]2O[C@@H]3OC(C)(C)O[C@@H]3[C@H]3OC(C)(C)O[C@H]32)cc1,109,109
COc1ccc(NC(=O)c2cnc(N3CCCCC3)c3ccccc23)cc1Cl,112,109
COc1ccc2c(c1)CC(NC(=O)Nc1c(C)cc(C)cc1C)CO2 (stereo unspecified),106,107
COc1ccc(-c2cn3cccnc3n2)cc1NC(=O)COc1ccccc1,109,103
COC(=O)c1ccc(Cl)cc1NC(=O)Nc1nnc(N2CCCC2)s1,103,110
Cc1cc(-n2c(SCC(=O)NCc3ccccc3)nc3ccsc3c2=O)ccc1Cl,101,107
CCN(CC)S(=O)(=O)c1ccc(NC(=O)[C@H](CCSC)N2Cc3ccccc3C2=O)cc1,106,110
CCOC(=O)c1ccccc1NC(=O)c1sc2ncn(CC)c(=O)c2c1C,107,111
CCOC(=O)c1c(-c2ccc(OC)c(OC)c2)csc1NC(=O)c1ccc(C)cc1,107,112
COc1ccc(NC(=O)Cn2c(=O)n(Cc3nc(-c4ccccc4)no3)c(=O)c3ccccc32)cc1Cl,102,100
COc1ccc(CCNC(=O)C(=O)NCC(c2cccnc2)N2CCN(c3ccccc3)CC2)cc1 (stereo unspecified),106,94
Cc1cccc(N2CCN(C(=O)Cn3ncc4c([nH]c5ccccc54)c3=O)CC2C)c1 (stereo unspecified),108,108
O=C(NCc1ccco1)c1ccc2c(c1)N(Cc1ccc(F)cc1)C(=O)c1ccccc1S2(=O)=O,101,99
COc1ccc(C(=O)N(Cc2ccc(C(C)C)cc2)C2CCS(=O)(=O)C2)cc1 (stereo unspecified),103,100
O=C(Cn1ncn2c(cc3sccc32)c1=O)NCCc1ccccc1,105,108
CCOc1ccccc1NC(=O)Cn1c(=O)n(-c2ccc(F)cc2)c(=O)c2c3c(sc21)CN(C(C)=O)CC3,104,101
COC(=O)c1c(C)nn(-c2ccc(F)cc2)c1-n1cccc1,112,112
COc1cccc(CSc2nc3cc(C(=O)NC4CCCC4)ccc3c(=O)n2Cc2ccccc2)c1,107,113
COc1ccc(OC)c(NS(=O)(=O)c2ccc(-n3cccn3)cc2)c1,110,113
CCOCCCNC(=O)c1ccc2c(c1)NC(=O)C(CS(=O)(=O)Cc1ccc(F)cc1Cl)N2 (stereo unspecified),115,123
CCOC(=O)C1CCN(C(=O)CSc2n[nH]c(-c3ccccc3Cl)n2)CC1,111,114
CCOc1ccc(-c2ccc(NS(=O)(=O)c3cc(C)ccc3OC)cc2)nn1,112,114
CCOC(=O)c1[nH]cnc1C(=O)Nc1cccc(OC)c1,100,102
Cc1ccc(Cn2ccn(CC(=O)Nc3c(C)cc(C)cc3C)c(=O)c2=O)cc1,106,106
CC(=O)Nc1ccc(NC(=O)c2oc3c(c2C)-c2nn(Cc4ccccc4Cl)cc2CC3)cc1,105,105
Cc1nc2cccnc2n1-c1cccc(C(=O)NCCc2ccc(Cl)cc2)c1,106,105
Cc1ccc(CN2CCC(CNC(=O)c3cnn(-c4ccccc4Cl)c3C3CCN(C(=O)OC(C)(C)C)CC3)CC2)cc1,102,108
Cc1ccc2oc(=O)n(CCCOc3ccccc3Cl)c2c1,98,103
CCCCN1C(=O)C(O)(c2c[nH]c3ccccc23)c2cc(Br)ccc21 (stereo unspecified),99,101
COc1ccc(C(=O)Nc2nnc(SCc3cc(=O)c4cc(C)cc(C)c4[nH]3)s2)cc1,105,105
CCN(CCCNC(=O)c1cc(Nc2ccccc2OC)nc2ccccc12)c1cccc(C)c1,106,103
COc1ccc(-c2noc(CC(=O)Nc3ccc(C)c(F)c3)n2)cc1,106,112
CC(=O)c1cccc(NC(=O)Cc2noc3ccccc23)c1,108,110
COc1ccc(NC(=O)c2c(NC(=O)COc3ccccc3)sc3c2CCCCC3)cc1,105,110
COc1ccc(-c2noc(-c3ccccc3NC(=O)c3cc(OC)c(OC)c(OC)c3)n2)cc1,106,110
CCOC(=O)C(Cc1ccccc1)NC(=O)Cn1nnc(-c2ccc(C)cc2)n1 (stereo unspecified),109,109
Cc1ccc(-n2ncc3c(NC4CCCCCC4)ncnc32)cc1Cl,101,107
COc1ccc(NC(=O)Nc2nnc(C)s2)cc1,110,110
CCn1cc(C(=O)OCC(=O)Nc2ccc(F)cc2F)c(=O)c2ccc(C)nc21,102,100
Cc1cccc(C)c1NC(=O)Nc1csc2c1CCCC2,110,108
CCCN(CCC)C(=O)c1nn(C)c2c1CSc1ccccc1-2,119,109
CCC(CO)Nc1ncnc2c1cnn2-c1ccc(C)cc1 (stereo unspecified),110,114
CCOCCc1nn2c(=O)cc(COC(=O)c3ccccc3NC(=O)c3ccccc3F)nc2s1,111,103
CC(=O)Nc1ccc(S(=O)(=O)NC2(C(F)(F)F)NC(=O)N(c3ccccc3F)C2=O)cc1 (stereo unspecified),105,105
Cc1ccc2nc(CSc3nnc(NC(=O)CC(C)C)s3)cc(=O)n2c1,110,102
Cc1nn(C)c2c1c(C(F)(F)F)cc(=O)n2CC(=O)Nc1ccc(F)cc1F,107,96

# (further entries)
SMILES,PV pol inh,PV pol inh intensity
CN(Cc1ccccc1)C(=O)C1CCN(S(=O)(=O)c2ccc3nc4c(c(C(=O)O)c3c2)CCCC4)CC1,99,107
CCOC(=O)C1=C(c2ccccc2)Nc2ncnn2C1c1ccc(Cl)cc1 (stereo unspecified),102,106
CCSc1nn(CC(=O)Nc2ccc(C(=O)OC)cc2)c(N)c1S(=O)(=O)c1ccc(C)cc1,101,109
Cc1ccc(-c2onc(C)c2C)cc1S(=O)(=O)NCc1cccs1,108,101
O=C(Cc1ccc(NC(=O)N2CCCCc3ccccc32)cc1)NCc1ccccc1Br,109,106
Cc1ccc2nc(-c3ccc(NC(=O)COc4c(C)ccc(C)c4C)cc3)sc2c1,105,104
CC(C)(C)c1ccc(Oc2nc3ccccn3c(=O)c2/C=C(\C#N)c2nc3ccccc3s2)cc1,95,120
O=C(NCCSCc1c(F)cccc1Cl)C1CCN(S(=O)(=O)Cc2ccccc2)CC1,104,111
COc1ccc(C2C(C(=O)Nc3ccccc3)=C(C)Nc3nc(-c4ccccc4)nn32)cc1OC (stereo unspecified),105,107
O=C1CC(c2ccc(Cl)cc2)N=C(NC(=O)c2ccccc2)N1 (stereo unspecified),98,98

# In the list so far, 2 have a CF3 group:
SMILES,PV pol inh,PV pol inh intensity
CC(=O)Nc1ccc(S(=O)(=O)NC2(C(F)(F)F)NC(=O)N(c3ccccc3F)C2=O)cc1 (stereo unspecified),105,105
Cc1nn(C)c2c1c(C(F)(F)F)cc(=O)n2CC(=O)Nc1ccc(F)cc1F,107,96

# By substructure, those above containing a furan ring, fused or not
SMILES,PV pol inh,PV pol inh intensity
O=C(NCc1ccco1)c1ccc2c(c1)N(Cc1ccc(F)cc1)C(=O)c1ccccc1S2(=O)=O,101,99
CC(=O)Nc1ccc(NC(=O)c2oc3c(c2C)-c2nn(Cc4ccccc4Cl)cc2CC3)cc1,105,105

# An excerpt from above in order of length of the SMILES, rising.
SMILES,PV pol inh,PV pol inh intensity
Cc1ccc(-c2onc(C)c2C)cc1S(=O)(=O)NCc1cccs1,108,101
O=C(Cc1ccc(NC(=O)N2CCCCc3ccccc32)cc1)NCc1ccccc1Br,109,106
O=C(NCCSCc1c(F)cccc1Cl)C1CCN(S(=O)(=O)Cc2ccccc2)CC1,104,111
COc1ccc(C2C(C(=O)Nc3ccccc3)=C(C)Nc3nc(-c4ccccc4)nn32)cc1OC (stereo unspecified),105,107
CC(C)(C)c1ccc(Oc2nc3ccccn3c(=O)c2/C=C(\C#N)c2nc3ccccc3s2)cc1,95,120
CN(Cc1ccccc1)C(=O)C1CCN(S(=O)(=O)c2ccc3nc4c(c(C(=O)O)c3c2)CCCC4)CC1,99,107

# Following part.
SMILES,PV pol inh,PV pol inh intensity
COc1ccc(NC(=O)c2cc(-c3ccc4c(c3)OCO4)on2)c(OC)c1,106,110
CCCc1nnc(NC(=O)Cc2coc3ccc(C(C)C)cc23)s1,112,114
CCC(C)NC(=O)c1ccc2c(c1)N(Cc1ccccc1F)C(=O)c1ccccc1S2=O (stereo unspecified),108,109
COc1ccccc1CNc1nc(-c2ccco2)nn1S(=O)(=O)c1ccc(C)cc1,110,111
Cc1ccc(C2=Nc3ccccc3N(CC(=O)Nc3cccc(F)c3)C(=O)C2)cc1C,112,99
COCCCNC(=O)c1c(NC(=O)c2nc(S(C)(=O)=O)ncc2Cl)sc2c1CCCC2,113,104
Cc1ccccc1OCc1nnc(SCc2cc(=O)c3ccccc3[nH]2)n1C,107,103
Fc1ccc(-n2ncc3c(N4CCCCCC4)ncnc32)cc1,101,105
CCC(C(=O)N1CCN(c2ccc(OC)cc2)CC1)n1nc(C)n2c(cc3occc32)c1=O (stereo unspecified),108,108
COc1ccc(Cn2c(C(=O)O)c(CNCc3ccc(C)o3)c3ccc(C)cc32)cc1,108,107
CC(NC(=O)c1ccc2c(c1)N(Cc1ccc(Cl)cc1)C(=O)c1ccccc1S2(=O)=O)c1ccccc1 (stereo unspecified),108,113
COc1ccc(CNC(=O)C(=O)NCC(c2cccnc2)N2CCN(c3ccccc3F)CC2)cc1 (stereo unspecified),114,110
O=C(NCc1cccc(Br)c1)c1cnn(-c2ccc(F)cc2)c1-n1cccc1,108,106
O=C(CSc1n[nH]c(-c2ccccc2)n1)N1CCCCC1,109,110
COc1ccc(-c2cc(C(F)(F)F)c(C#N)c(SCC(=O)Nc3ccc(F)cc3)n2)cc1,103,109
CCC1CCC(C(=O)NC(C(=O)Nc2cccc(OC)c2)C(C)C)CC1 (stereo unspecified),107,109
CCC(C(=O)NCc1ccccc1OC)n1nc(C)n2c(cc3occc32)c1=O (stereo unspecified),106,105
CCOC(=O)c1cccc(NC(=O)CSc2ncc3c(n2)-c2ccccc2N(C)S3(=O)=O)c1,115,116
CCOc1ccccc1N(C)C(=O)c1cc(S(=O)(=O)NCc2ccc(C)cc2)ccc1F,105,98
COc1ccccc1NC(=O)Cn1c(=O)n(-c2cccc(C(C)=O)c2)c(=O)c2c3c(sc21)CN(C(C)=O)CC3,110,106
CCc1ccc(NC(=O)Cn2ccn(-c3ccc(C)c(C)c3)c(=O)c2=O)cc1,115,112
COC(=O)c1ccc(C(=O)OC)c(NC(=O)c2cnn3c(C(F)F)cc(-c4ccc(C)cc4)nc23)c1,104,109
CCN(CC)C(=O)Cn1c(=O)n(CCc2ccccc2)c(=O)c2ccccc21,108,111
CCOC(=O)c1c(C)[nH]c(CCC(=O)Nc2ccc(OC)c(OC)c2)c1C,108,115
COc1ccc(-c2[nH]ncc2C(=O)NCc2cccc(OC)c2)cc1,110,115
COc1ccc(NC(=O)c2ccc(-c3nc(CSc4ccc(C)cc4)c(C)o3)cc2)cc1Cl,106,95
COc1ccc(CNC(=O)c2cnc(N3CCOCC3)c3ccccc23)cc1,108,111
O=C(Nc1ccccc1C(=O)OCc1cc(=O)n2c3c(sc2n1)CCCC3)c1ccc(Cl)cc1,100,107
Cc1cc2oc(C(=O)N(Cc3ccc(N(C)C)cc3)CC3CCCO3)c(C)c2cc1C (stereo unspecified),106,111
Cc1cccc(-c2noc(-c3ccc(NC4CCCC4)c([N+](=O)[O-])c3)n2)c1,108,109
Cc1ccc(CCNC(=O)c2cc3c(s2)-c2c(C)cccc2OC3)cc1,108,109
O=C(NCCCN1CCN(c2ccccc2)CC1)c1cc2c(s1)-c1ccccc1OC2,99,104
Cc1c(Cl)cccc1Nc1nn2c(=O)c3ccc(C(=O)NCCC4=CCCCC4)cc3nc2s1,102,108
CN(CCCNC(=O)c1cc2c(=O)n(C)c3ccccc3c2s1)Cc1ccccc1,102,101
CCOc1ccc(-c2cc(C(F)(F)F)c(C#N)c(SCC(=O)Nc3ccccc3)n2)cc1,106,112
CCOc1ccc(NC(=O)CSc2oc(-c3ccco3)nc2S(=O)(=O)c2ccc(Cl)cc2)cc1,109,106
COc1ccc(NC(=O)c2nnn(Cc3nc(-c4cc(Br)ccc4OC)oc3C)c2C)cc1,107,111
COc1ccc(CNC(=O)C2CCCN(S(=O)(=O)c3ccc4c(ccn4C)c3)C2)c(OC)c1 (stereo unspecified),107,110
COc1ccc(Nc2c3c(nc4ccc(NC(=O)/C=C/c5cccc(OC)c5OC)cc24)CCCC3)cc1OC,102,104
CCCCC(=O)N1CCc2cc(OC)c(OC)cc2C1COc1ccc(OC)cc1 (stereo unspecified),106,106
COc1cccc(CNC(=O)CCc2c(C)nn(-c3ccc(N4CCOCC4)nn3)c2C)c1,111,103
COc1ccc(C2Nc3ccccc3-c3cc(C)nn32)c(OC)c1 (stereo unspecified),110,112
Cc1ccc(Cn2c(SCC(=O)NCc3ccc(Cl)cc3)nc3ccsc3c2=O)cc1,116,110
COc1ccc(-c2nn3c(=O)cc(CN4CCN(S(=O)(=O)c5ccc(C)cc5)CC4)nc3s2)cc1,108,105
Fc1ccc(-c2noc3ncnc(NCCc4ccccc4)c23)cc1,113,116
O=C(c1cc2ccccc2oc1=O)N1CCN(c2ccc(Cl)cc2)CC1,108,112
CCCOC(=O)c1cccc(Nc2nc(C(=O)OCC)nc3ccccc23)c1,101,104
CC(C)Oc1ccc(CNC(=O)CN2C(=O)CCn3nc(-c4cn(C)c5ccccc45)cc32)cc1,98,95
CCn1c2ccccc2c2nnc(N3CCN(c4ccc(OC)cc4)CC3)nc21,104,111
COc1ccc(Cn2c(SCC(=O)N(C)Cc3ccccc3)nc3ccccc32)cc1,113,113
CCCCNC(=O)CCC1N=C2c3ccccc3N=C(SCC(=O)NCCc3ccc(OC)c(OC)c3)N2C1=O (stereo unspecified),105,111

# Screening data as filed in PubChem.
